High-throughput results from PubChem.
WNV NS2B-NS3 inh – inhibitors of West Nile virus NS2B-NS3 protease; z-score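 (tested at a level between 10 and 100 µM)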; AID 577; P06935; 0.18% of 65,000 active; WNV NS2B-NS3 protease, fluorogenic substrate Ex360/Em465; active compounds read low;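 active = z-score at -3 or under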;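 note: score is relative to mean and spread of the compound wells of a plate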
Target sequence (P06935 1371-1501 limits assumed): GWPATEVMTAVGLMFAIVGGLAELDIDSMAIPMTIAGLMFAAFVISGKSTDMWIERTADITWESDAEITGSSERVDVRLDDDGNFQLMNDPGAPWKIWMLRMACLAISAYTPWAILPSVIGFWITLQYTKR
Target sequence (P06935 1502-1679 limits assumed): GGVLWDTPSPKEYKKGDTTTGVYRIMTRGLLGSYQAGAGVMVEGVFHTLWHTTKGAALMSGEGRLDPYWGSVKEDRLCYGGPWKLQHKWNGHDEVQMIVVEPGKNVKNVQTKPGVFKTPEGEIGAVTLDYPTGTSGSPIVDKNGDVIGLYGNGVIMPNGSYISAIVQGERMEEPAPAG
An asterisk follows results filed as active. The list is partial; count on the stated rates, not on these rows.

mol	WNV NS2B-NS3 inh
O=C(NCCCn1ccnc1)c1cn(-c2ccccc2)nc1-c1ccccc1	-0.37
O=C(N1CCOCC1)N(Cc1ccco1)CC1CCCO1 (stereo not drawn)	0.67
COc1ccc(CN2CC(C(=O)NCCCN3CCN(Cc4ccccc4)CC3)CC2=O)cc1 (stereo not drawn)	0.84
COc1ccc(NC(=O)C2OCCc3ccccc32)c(OC)c1 (stereo not drawn)	0.98
CCC(=O)N1CCc2cc(S(=O)(=O)NCCN3CCC(C)CC3)ccc21	-0.33
CCCCNc1nc2c(c(=O)n(C)c(=O)n2C)n1CCC	0.37
CN(C)CC(=O)Nc1ccc(S(N)(=O)=O)cc1	-0.99
CC1Cc2ccccc2N1c1ncnc2nc[nH]c12 (stereo not drawn)	-0.38
CCOC(=O)N1CCC(NC(=O)C2CCN(c3nc(-c4ccc(OC)cc4)no3)CC2)CC1	-1.2
CC(C)(C)n1nc2c(c1NC(=O)c1ccc(S(=O)(=O)N3CCCC3)cc1)CSC2	0.28
COc1cc2c(cc1OC)CN(C(=O)CSc1nc3[nH]ncc3c(=O)n1-c1ccccc1)CC2	0.89
C=CCn1c(SCC(=O)NCc2ccco2)nnc1-c1ccc2ccccc2n1	-0.95
CCCCn1c(=O)cc(O)c2ccccc21	1.17
Cc1cc(NC(=O)CN2CCc3ccccc3C2)nc2c1c(=O)oc1ccccc12	0.22
Cc1ccc2c(c1C)NC(C(=O)O)C1CC=CC21 (stereo not drawn)	-2.69
CS(=O)(=O)N(CC(=O)NCc1ccc2c(c1)OCO2)Cc1ccc(Cl)cc1	0.15
CCOC(=O)C1(c2csc(N)n2)COC(=O)C1 (stereo not drawn)	-0.51
O=C(Nc1ccccc1)OCC1CCCN2CCCCC12 (stereo not drawn)	-0.72
CCc1nn(CC(=O)NCCCN2CCc3ccccc3C2)c(=O)c2cc3sccc3n12	2.08
Cc1[nH]n(-c2ccccc2)c(=O)c1/C=N/O	-0.89
COc1cc(C(=O)NCc2nnc(SCC(=O)Nc3cccc(C)c3)o2)cc(OC)c1OC	1.83
O=C(OCCOc1ccc(Br)cc1)c1cnccn1	2.2
CN(CCCNC(=O)C1CCN(S(=O)(=O)N2CCC3(CC2)OCCO3)CC1)Cc1ccccc1	-0.66
CC1CCN(C2CC(=O)N(c3ccc(Br)cc3Br)C2=O)CC1 (stereo not drawn)	-0.72
Clc1ss/c(=N\c2ccccn2)c1Cl	-0.48
Cc1cc(C)c(C(=O)CN2C(=O)CCC2=O)cc1C	0.95
CCn1c(=NC(=O)CSC(C)=O)sc2ccccc21	-0.92
COc1ccccc1C(=O)OCn1nnc2ccccc2c1=O	0.93
CN1C(=O)N(C)C2CC1N(C)C(=O)N2C	0.44
Nc1c(C(=O)NCc2ccccc2)nnn1Cc1ccccc1	2.25
CCC(C)(C)NC(=O)C(c1ccccc1F)N(Cc1ccco1)C(=O)c1csnn1 (stereo not drawn)	0.22
Cc1c(C(=O)NCc2cccnc2)sc2nc(-c3ccccc3)cn12	-0.46
O=C(CSc1nc2ccccc2[nH]1)Nc1ccc(F)cc1	-0.73
CC(C)(C)n1ncc2c(=O)n(CC(=O)N3CCc4ccccc43)cnc21	1.75
CCCc1cc(C(N)=O)c(NC(=O)C2CCCO2)s1 (stereo not drawn)	1.7
Cc1ccc(C(C)C)c(Oc2nnnn2-c2ccccc2)c1	0.92
CCOC(=O)C1=C(C)NC2=C(C(=O)CCC2)C1c1cccs1 (stereo not drawn)	0.58
CSc1ccc(-c2nnn(Cc3ccc(C)cc3)n2)cc1	-0.46
CN(C)S(=O)(=O)N1CCC(CCCC2CCN(S(=O)(=O)N(C)C)CC2)CC1	-1.64
Cc1ccc(OCCCCn2ccnc2)c(Cl)c1	-1
Cc1ccc(-c2nnc3n2N=C(c2ccccc2)CS3)cc1	-2.15
c1nc(N2CCN(Cc3ccc4c(c3)OCO4)CC2)c2[nH]cnc2n1	-0.82
CCOC(=O)C1CCCN(C(=O)C2CCN(S(=O)(=O)c3cccs3)CC2)C1 (stereo not drawn)	-0.68
Cc1noc(C)c1S(=O)(=O)N1CCC(C(=O)Nc2ccc(OC(F)(F)F)cc2)CC1	-0.49
CCOC(=O)C1=C(NC(=O)c2ccc(Br)o2)Nc2ccccc2N=C1	-0.38
COc1ccc(-n2c(SCc3nnc(-c4ccccc4)o3)nnc2-c2ccccc2)cc1	-0.65
Cc1ccc(C(=O)CSC2=C(C#N)C(c3ccco3)C3=C(CC(C)(C)CC3=O)N2)cc1 (stereo not drawn)	0.2
CCCCCSc1nncc(=O)[nH]1	-1.33
Nc1nc(CN2CCOCC2)cs1	-0.03
CCOC(=O)c1ccccc1NC1c2ccccc2C(=O)N1c1ccc(C)cn1 (stereo not drawn)	1.16
O=C(N1CCOCC1)N1CCN(C(=O)N(c2ccccc2)c2ccccc2)CC1	0.00486
CCOC(=O)N1CCC(NC(=O)C2CCN(C(=O)N3CC(C)Oc4ccc(C)cc43)CC2)CC1 (stereo not drawn)	-0.64
CCOC(=O)c1[nH]nc(C(=O)c2ccc(Br)cc2)c1O	-1.29
CCOc1ccccc1N(CC(=O)Nc1ccccc1C(=O)OC)S(C)(=O)=O	-0.86
CCOC(=O)N1CCC(NC(=O)C2CCN(S(=O)(=O)c3c(C)noc3C)CC2)CC1	-0.74
CC(C(=O)N1CCN(C)CC1)N1C(=O)c2ccccc2C1=O (stereo not drawn)	-0.78

(continued)
mol	WNV NS2B-NS3 inh
c1ccc2[nH]c(SN3CCOCC3)nc2c1	-0.93
CCCN(c1ccc(C(C)C)cc1)S(=O)(=O)c1c(C)noc1C	-1.56
CN(CCc1ccccn1)Cc1ccc(Cl)cc1Cl	-0.82
CN(CCCNC(=O)CN1C(=O)CC(C)(C)S(=O)(=O)c2ccccc21)C1CCCCC1	-0.69
Cn1ccnc1SCC(=O)Nc1ccc2nc(SCC(=O)NC3CC3)sc2c1	0.45
CC(=O)N(Cc1ccccc1)c1ncc2c(n1)c(=O)c(C#N)c1ccccn12	-0.71
O=C(CC1(O)C(=O)N(CN2CCOCC2)c2ccccc21)c1ccccc1 (stereo not drawn)	2.57
O=C(NC(C(=O)c1ccccc1)n1cnccc1=O)c1ccccc1 (stereo not drawn)	-0.98

New compounds follow
mol	WNV NS2B-NS3 inh
COc1ccc(-c2cc(C(=O)Nc3c(C)nn(Cc4ccccc4)c3C)no2)cc1	-0.05
Cc1cc(C(=O)CSc2nnnn2-c2ccc(O)cc2)c(C)n1Cc1ccc2c(c1)OCO2	-0.57
Cc1csc(N(C)C(=O)CSc2nnc(COc3ccccc3C)o2)n1	-0.21
C=CCn1c(=O)[nH]c2cc(C(=O)N3CCN(c4cc(C)ccc4C)CC3)ccc2c1=O	0.12
COc1ccc(-c2[nH]ncc2-c2cnn(-c3ccccc3)c2)c(O)c1	-0.64
COc1cccc(OCc2nc3ccccc3[nH]2)c1	0.21
COc1cc(C(=O)OCn2nnc3ccccc3c2=O)cc(OC)c1OC	-0.16
O=C1CCc2cc(S(=O)(=O)NC(Cc3ccccc3)C(=O)NC3CCCCC3)ccc2N1 (stereo not drawn)	2.82
CCc1cccc(CC)c1N(COC)C(=O)Cn1ccccc1=N	0.13
Cc1cc(C)nc(NCC(O)CNc2ccccc2Cl)n1 (stereo not drawn)	0.12
CCCCc1c(O)n2c(nc3ccccc32)[nH]c1=O	0.23
COc1ccc(C2CC(C(F)(F)F)n3nc(C(=O)O)cc3N2)cc1OC (stereo not drawn)	0.18
COC(=O)CNC(=O)CCCCC(=O)NCC(=O)OC	-0.77
COC(=O)CSc1nnc2n(C3CCCCC3)c(=O)c3c4c(sc3n12)CCCC4	-1.34
CCOC(=O)COC(=O)c1ccc(O)cc1	-0.48
CC(=O)N(CC(=O)O)c1ccccc1C(=O)O	-0.39
CCCn1c(CNS(=O)(=O)c2ccc(C)cc2)nc2ccccc21	-0.69
COC(=O)c1nc2n(n1)C(c1ccc(OC)c(OC)c1)C(C(=O)OC1CCCCC1)=C(C)N2 (stereo not drawn)	0.73
CCOC(=O)c1c(C2COc3ccccc3O2)csc1NC(=O)c1ccco1 (stereo not drawn)	0.56
COc1ccccc1-c1n[nH]c(=S)o1	-0.86
O=C(CCCCn1c(=O)c2ccccc2n(CC(=O)Nc2ccccc2)c1=O)NCc1ccco1	1.04
CCCOC(=O)C1C2C=CC3(CN(c4ccc(Cl)c(F)c4)C(=O)C13)O2 (stereo not drawn)	-1.64
Cc1cc(N(C)Cc2ccccc2)nc(-c2ccccc2)n1	-0.47
CCOC(=O)CC(=O)Nc1ccccc1C(=O)O	-0.06

The last 3 records of the part above lead into the next:
mol	WNV NS2B-NS3 inh
CCCOC(=O)C1C2C=CC3(CN(c4ccc(Cl)c(F)c4)C(=O)C13)O2 (stereo not drawn)	-1.64
Cc1cc(N(C)Cc2ccccc2)nc(-c2ccccc2)n1	-0.47
CCOC(=O)CC(=O)Nc1ccccc1C(=O)O	-0.06
O=C(O)c1cc(C(=O)O)c(-c2ccccc2)c(C(=O)O)c1	-0.19
COc1ccc2c(c1)CCc1cc(C(=O)N3CCN(c4ccc(N5CCOCC5)nn4)CC3)sc1-2	0.12
O=C(Nc1ccc(OC(F)(F)F)cc1)C1=NCCN1	1.78
CCC1CCCCN1C(=O)CSc1nnc(CNC(=O)COc2ccc(Cl)cc2)o1 (stereo not drawn)	1.03
Cc1ccc(CNC(=O)C2C3C=CC4(CN(Cc5cccnc5)C(=O)C24)O3)cc1 (stereo not drawn)	0.96
CC(=O)NC1C2CN3CCN(C2)CC1(Cc1ccccc1)C3 (stereo not drawn)	0.53
COCCSc1ccccc1C(=O)N1CCN(Cc2ccc3c(c2)OCO3)CC1	0.35
COc1cc2[nH]c(=O)n(CCCCCC(=O)NCCCN3CCCC3=O)c(=O)c2cc1OC	0.03
O=C(Nc1ccc2c(c1)OCO2)C1CCN(Cc2cnn(-c3ccccc3)c2-n2cccc2)CC1	1.25
CCOC(=O)c1sc(NC(=O)CSc2nnc(Cc3ccccc3)o2)c(C#N)c1C	-0.46
CCOC(=O)CSc1nc(N)c(C#N)c(-c2cccs2)c1C#N	-0.4
Cc1ccc(N2C(=O)CSC2c2cccnc2)cc1F (stereo not drawn)	1.11
c1ccc(-c2csc(Nc3nc(N4CCOCC4)nc(N4CCOCC4)n3)n2)cc1	0.00398
Cc1cc(=O)[nH]c(SCc2nc3ccccc3n2Cc2ccccc2)n1	-0.47
CCCS(=O)(=O)N1CCN(c2ccccn2)CC1	-0.49
CCCc1cc(=O)[nH]c(SCC(=O)NC(=O)OCC)n1	0.57
O=c1oc2ccccc2cc1-c1nc2ccccc2o1	5.95
CCn1cc(C(=O)OCc2ccc(F)cc2)c(=O)c2ccc(C)nc21	-1.14
CC1CCN(CCNC(=O)C2CCCN(S(=O)(=O)c3cccc4nonc34)C2)CC1 (stereo not drawn)	0.87
COc1ccc(C(=O)NCc2nnc(SCC(=O)Nc3cccc(C(F)(F)F)c3)o2)cc1OC	-0.33
c1coc(-c2nc3nc4ccccc4n3nc2-c2ccco2)c1	0.29
CN1CCCCc2c1[nH]c1ccccc1c2=O	0.36
O=C(CSc1nccn1-c1ccccc1)Nc1ccc2c(c1)OCO2	1.5
CC1(C)Cc2c(sc3nc4n(c(=N)c23)CCCCC4)CO1	-0.99
O=C(NC1CCN(Cc2ccccc2)CC1)C1CCCN(S(=O)(=O)c2cccc3nonc23)C1 (stereo not drawn)	-0.32
CC(=O)N1C(=O)N(C)C2C1N(C)C(=O)N2C(C)=O (stereo not drawn)	-1.35
CC1(C)CC(=O)C2=C(C1)N(c1ccc(F)cc1)C(=O)CC2c1cccnc1 (stereo not drawn)	1.09
Cc1onc(-c2ccccc2Cl)c1C(=O)NCCn1c(C)cc2ccccc21	-0.56
Cc1ccc(-c2noc(CCC(=O)NCCN3CCc4ccccc4C3)n2)cc1	0.78
O=C(NCCN1CCN(c2ccccc2)CC1)c1ccc(NC(=O)C2CCCO2)cc1 (stereo not drawn)	-0.71
COc1cc(C(=O)N2CCN(c3ccc(C)cc3C)CC2)cc(OC)c1OC	-1.35
CCOc1cc(C2C(C(=O)c3ccc(C)cc3)=C(C(=O)OC)Nc3nnnn32)ccc1O (stereo not drawn)	1.14
COc1ccc(NC(=O)C2CCCN2S(=O)(=O)c2cccc3cccnc23)c(OC)c1 (stereo not drawn)	-0.56
CCC1CCCCN1C(=O)CSc1nnc(CNC(=O)c2ccco2)o1 (stereo not drawn)	-1.35
CCN(c1cccc(C(F)(F)F)c1)S(=O)(=O)c1ccc2c(c1)CCN2C(C)=O	2.14
CCCCCC(=O)Nc1ccc(S(=O)(=O)Nc2nccnc2OC)cc1	-1.53
O=C(Cn1cnc2c(oc3ccccc32)c1=O)N1CCCc2ccccc21	-2.46
COc1ccc(NC(=O)CCSc2nnc(C)s2)cc1	3.29
Cc1ccc(-n2ncc3c(NCCCN4CCOCC4)ncnc32)c(C)c1	0.01
O=C1N=C(c2ccccc2)C(c2ccccc2)N1 (stereo not drawn)	1.45
CCN(CC)C(=O)NC1CC2CCCC(C1)N2Cc1ccccc1 (stereo not drawn)	-1.37
Cc1cc2c3nonc3ccc2n1-c1ccccc1	-1.04
COc1ccc(OC)c(C(=O)COC(=O)C2CC3CCCC(C2)C3=O)c1 (stereo not drawn)	-0.16
Cc1ccc(-c2nc3ncccn3c2Nc2ccc3c(c2)OCCO3)o1	-0.77
COC(=O)c1cc(-c2ccc(Br)cc2)n[nH]1	0.05
On1onc2c3cc(-c4ccccc4)nc3ccc21	-0.88
CC(=O)Oc1cc2c(C(=O)NCc3ccncc3)c(C)oc2c2ccccc12	0.18

Five entries drawn at random from the list so far:
mol	WNV NS2B-NS3 inh
CC(=O)Oc1cc2c(C(=O)NCc3ccncc3)c(C)oc2c2ccccc12	0.18
COC(=O)c1cc(-c2ccc(Br)cc2)n[nH]1	0.05
COc1ccc(OC)c(C(=O)COC(=O)C2CC3CCCC(C2)C3=O)c1 (stereo not drawn)	-0.16
CCN(CC)C(=O)NC1CC2CCCC(C1)N2Cc1ccccc1 (stereo not drawn)	-1.37
On1onc2c3cc(-c4ccccc4)nc3ccc21	-0.88
